Compound activity from PubChem BioAssay.
Arbovirus inh = arbovirus infection inhibition; inhibition, % at 10 µM; arbovirus infection cell-based antiviral screen; 200,000 tested, 0.37% active; AID 1251;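 active = inhibition from about 30%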;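 also: bluetongue infection of BSR cells; cell survival read as ATP light after 72 h; 0% = infected wells without compound and 100% = uninfected wells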
Mtb growth = M. tuberculosis H37Rv growth inhibitors, H37Rv strain (AID 1626); M. tuberculosis H37Rv growth inhibition; higher % means a stronger effect; inhibition, % at 10 µM; hits with a dose series show IC50 in µM; 220,000 tested, 0.95% active;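 active = confirmed in a dose series; inconclusive = inhibition above 80% but not taken into the dose series; inactive = below 80% or under 30% at every dose of the series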;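 also: bacteria incubated seven days before Alamar blue readout; 0% = bacteria only wells and 100% = bacteria with antibiotic wells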
Mtb bLac sens = beta-lactam sensitization of Mtb H37Rv; M. tuberculosis H37Rv growth with meropenem, percent inhibition; hits of this screen are not shown here; inhibition, % at 25 µM; 330,000 tested, 0.27% active; AID 434955;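 active = about 74% or more and at least 40 points above the plate without the antibiotic, then above 30% in a dose series; inconclusive = first-round hits that could not be retested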;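 also: growth measured after seven days incubation then overnight dye step; 0% = bacteria only wells and 100% = bacteria with antibiotic; twin plates without the antibiotic show which effects depend on it; some results filed as inactive read as strong as hits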
YopH inh = YopH (Yersinia) phosphatase inhibition | fluorescence Ex485/Em525 | inhibition, %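 (about 10 µM by stock and volumes)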 | 140,000 tested, 0.16% active | AID 898;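 active = inhibition of 50% or more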;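 also: controls were vehicle for no effect and minimum signal wells for full effect; inactives centre near -20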
RecA splice inh = blocks M. tuberculosis RecA intein splicing; P9WHJ3; cell-free RecA intein splicing, fluorescence; inhibition, %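 (about 9 µM by stock and volumes)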; 290,000 tested, 0.75% active; in the data active = inhibition above about 30%; inconclusive = no clear call, values can overlap the other calls;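 also: 0% = vehicle wells and 100% = reference inhibitor control wells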
Target sequence (P9WHJ3 whole entry, looked up, canonical isoform): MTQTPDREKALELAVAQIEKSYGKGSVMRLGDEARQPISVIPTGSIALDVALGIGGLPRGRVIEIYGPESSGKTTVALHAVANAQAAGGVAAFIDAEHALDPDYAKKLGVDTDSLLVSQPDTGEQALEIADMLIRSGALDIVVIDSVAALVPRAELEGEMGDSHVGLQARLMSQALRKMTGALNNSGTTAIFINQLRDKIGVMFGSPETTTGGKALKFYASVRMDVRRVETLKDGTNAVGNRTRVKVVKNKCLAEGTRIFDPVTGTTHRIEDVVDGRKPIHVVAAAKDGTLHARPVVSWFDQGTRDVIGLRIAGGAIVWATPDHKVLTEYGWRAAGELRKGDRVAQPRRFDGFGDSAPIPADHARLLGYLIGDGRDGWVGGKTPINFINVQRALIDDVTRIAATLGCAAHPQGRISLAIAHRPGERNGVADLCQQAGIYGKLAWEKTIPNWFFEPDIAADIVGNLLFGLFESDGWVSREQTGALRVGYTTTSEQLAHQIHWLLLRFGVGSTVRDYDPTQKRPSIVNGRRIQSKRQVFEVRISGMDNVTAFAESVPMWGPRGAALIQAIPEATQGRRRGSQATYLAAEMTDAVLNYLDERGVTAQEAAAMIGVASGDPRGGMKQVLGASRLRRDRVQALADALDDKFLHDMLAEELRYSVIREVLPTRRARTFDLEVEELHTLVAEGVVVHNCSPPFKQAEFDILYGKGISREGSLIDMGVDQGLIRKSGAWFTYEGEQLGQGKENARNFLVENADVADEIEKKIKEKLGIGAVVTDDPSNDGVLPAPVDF
Arbovirus inh repeat = recorded beside Arbovirus inh, whose call it bears; inhibition, %; measured here: 10K subset replicate screen; many hits read low in the repeat;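 first of two repeat runs on a subset; 0% = infected and 100% = uninfected wells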
Active calls of the source: *; i = inactive; ? = inconclusive; . = not tested or not shown.

Start of the data: the first 3 entries (preview)
SMILES	Arbovirus inh	Mtb growth	Mtb bLac sens	YopH inh	RecA splice inh	others
O=C(Cc1ccccc1)NCCSCc1ccco1	5	8%	13	-1	-2.4
COc1ccc(CCn2c(=O)[nH]c3cc(C(=O)NCCN4CCOCC4)ccc3c2=O)cc1OC	-1	.	-17	-18	3.5
COc1ccc(OCC(=O)NC2CC(C)(C)NC(C)(C)C2)cc1	4	-7%	2	-32	-0.1	Arbovirus inh repeat=-1

This part in full (from the top)
SMILES	Arbovirus inh	Mtb growth	Mtb bLac sens	YopH inh	RecA splice inh	others
O=C(Cc1ccccc1)NCCSCc1ccco1	5	8%	13	-1	-2.4
COc1ccc(CCn2c(=O)[nH]c3cc(C(=O)NCCN4CCOCC4)ccc3c2=O)cc1OC	-1	.	-17	-18	3.5
COc1ccc(OCC(=O)NC2CC(C)(C)NC(C)(C)C2)cc1	4	-7%	2	-32	-0.1	Arbovirus inh repeat=-1
CC(=O)N1c2ccc(S(=O)(=O)N3CCC(C(=O)Nc4ccc(F)cc4)CC3)cc2CC1C (stereo not given)	.	.	12	.	-2.6
CC(NCc1ccc(Cl)cc1)C(O)c1ccccc1 (stereo not given)	-10	10%	0	-21	-0.4
Cc1nn(CC(=O)O)c(C)c1N	.	-3%	-1	.	3.3
COc1ccc(NC(=O)c2cc(C)on2)cc1	-4	2%	-5	.	1.1
Fc1ccccc1N1CCN(c2ncnc3[nH]ncc23)CC1	43*	.	17	-12	2.2
CN(NC(=O)c1ccc(Cl)cc1)c1ncc(C(F)(F)F)cc1Cl	.	-5%	-3	.	-0.3
COCCNC(=O)c1ccccc1-c1nc(-c2ccccc2OC)no1	-6	13%	0	2	5.8
COc1ccc2oc(C(=O)Nc3nc(-c4ccccn4)cs3)c(C)c2c1	.	.	-5	.	-0.8
CCN1CCN(C(=O)CCc2nnc3ccc(N4CCN(c5cccc(OC)c5)CC4)nn23)CC1	.	.	-3	.	-2.9
CCOC(=O)c1ccc(S(=O)(=O)Nc2ccc3cn[nH]c3c2)cc1	8	-5%	9	-34	2.5
Cc1conc1NC(c1cccs1)c1ccc2cccnc2c1O (stereo not given)	-34	16%	?	-9	-2.7
O=C(N/N=C/c1ccccc1O)C1CC(=O)N(c2ccc(F)cc2)C1 (stereo not given)	.	.	-1	.	-3.8
CCS(=O)(=O)N1CCC(C(=O)c2ccc(Cl)cc2)CC1	5	-11%	3	-11	0.7
CNC(=O)[C@@]1(Cc2ccccc2)C=C[C@@H](C)N1C(C)=O	.	-9%	-6	.	-0.7
O=C(NC1CCCCC1)c1cc(-c2ccccc2O)on1	.	.	6	.	-2.9
O=C(Nc1ccc(N2CCCC2=O)cc1)c1cccc(F)c1	-8	-8%	-1	-44	0.0
O=C(c1cccc2ccccc12)C1CCCN(C2CCC2)C1 (stereo not given)	-3	-1%	2	.	4.8
CCCn1nnnc1NCc1ccccc1Cl	.	.	-3	.	-0.8
CC1CCc2c(sc3ncn(CC(=O)N4CCCCC4)c(=O)c23)C1 (stereo not given)	8	0%	3	.	3.3
O=C(COc1ccccc1Cl)NCCC1=CCCCC1	3	9%	16	-27	5.3
Cc1c(CC(=O)NCC(=O)NCC(=O)O)c(=O)oc2cc3c(cc12)CCC(C)(C)O3	.	.	-2	.	-3.4
CCN=C1S/C(=C/c2ccc(-c3ccc(Cl)cc3C(=O)O)o2)C(=O)N1CC	.	.	6	.	-6.3

Ordered by number of heavy atoms (low to high): part of the list above
SMILES	Arbovirus inh	Mtb growth	Mtb bLac sens	YopH inh	RecA splice inh	others
COc1ccc(NC(=O)c2cc(C)on2)cc1	-4	2%	-5	.	1.1
O=C(Cc1ccccc1)NCCSCc1ccco1	5	8%	13	-1	-2.4
CCS(=O)(=O)N1CCC(C(=O)c2ccc(Cl)cc2)CC1	5	-11%	3	-11	0.7
Fc1ccccc1N1CCN(c2ncnc3[nH]ncc23)CC1	43*	.	17	-12	2.2
CC1CCc2c(sc3ncn(CC(=O)N4CCCCC4)c(=O)c23)C1 (stereo not given)	8	0%	3	.	3.3
COc1ccc2oc(C(=O)Nc3nc(-c4ccccn4)cs3)c(C)c2c1	.	.	-5	.	-0.8

(continued)
SMILES	Arbovirus inh	Mtb growth	Mtb bLac sens	YopH inh	RecA splice inh	others
Cc1cc2oc(=O)cc(CN3CCc4ccccc43)c2cc1Cl	18	9%	-11	-46	1.7
COc1ccccc1C(=O)NCCC(=O)Nc1ccncc1	.	.	-6	.	-0.3
COC(=O)c1ccc(C(=O)OC)c(NC(=S)N2CCC(C)CC2)c1	-1	-13%	3	-25	-0.1
COc1cc(C(=O)N/N=C(\C)c2ccc(NC(=O)Cc3ccccc3)cc2)ccc1O	.	.	11	.	-4.0
COc1ccccc1NS(=O)(=O)c1ccc(C)c(C(=O)NCC(c2ccco2)N(C)C)c1 (stereo not given)	.	.	-1	.	-0.7
Cc1c(CCOC(=O)C23CC4CC(CC(C)(C4)C2)C3)sc[n+]1CC(=O)c1ccccc1	-30	1%	48	.	6.8
Brc1ccc2c(c1)C(c1ccc(N3CCOCC3)cc1)=NNC(c1cccs1)=N2	-5	2%	98	-28	5.7
COc1ccc(NC(=O)c2cccc(S(=O)(=O)N3CCCCC3)c2)c(OC)c1	.	.	-2	.	-2.3
O=C(CN1C(=O)C2CCCN2C(=O)c2ccccc21)Nc1ccccc1-n1cccc1 (stereo not given)	.	-12%	3	-11	-0.7
C/C(=C\C(=O)c1cccnc1)Nc1ccc(C(=O)O)cc1	-4	-3%	-21	-11	1.1
CC(NC(=O)/C(C#N)=C/c1cn[nH]c1-c1ccccc1)c1ccccc1 (stereo not given)	5	10%	3	-8	5.0
CCCCOC(=O)c1nnc(-c2ccc(Cl)cc2)o1	.	-13%	-2	.	0.2
Cc1cccc(CC(=O)Nc2cc(=O)n(C)c(=O)n2C)c1	2	41%	1	-26	-2.3	Arbovirus inh repeat=1
Clc1ccc(C2N3CCCN23)c(Cl)c1 (stereo not given)	-3	-2%	-7	5	-1.0
Cc1cccc(C(C)C)c1NC(=O)COC(=O)C1CC(=O)N(Cc2ccccc2)C1 (stereo not given)	.	.	0	.	-0.4
Cc1ccc(OCC(=O)N/N=C\c2ccc(O)c([N+](=O)[O-])c2)c([N+](=O)[O-])c1	-17	3%	93	.	3.8
CC(C)(C)NC(=O)C12CCC(C)(c3nc4ccccc4nc31)C2(C)C (stereo not given)	15	-10%	3	-29	1.5
Cc1ccc(Oc2ccccc2NC(=O)CSCC(=O)Nc2cc(C)on2)cc1	.	.	-4	.	3.4
O=C(Nc1ccccc1N1CCCC1)c1ccc([N+](=O)[O-])o1	.	.	100	.	-2.0
C[N+]1(C)CC[C@H](OC(=O)[C@@](O)(c2ccccc2)C2CCCC2)C1	.	.	-3	.	2.2
COc1ccc(C2CC(C(F)(F)F)n3nc(C(=O)NCCN4CCOCC4)cc3N2)cc1 (stereo not given)	5	6%	6	-18	.
COc1cc(-c2[nH]ncc2CN2CCCC2c2nonc2C)cc(OC)c1OC (stereo not given)	-8	-5%	-4	.	-0.2
COc1ccc(C(C#N)N2N=C(C)CC2(C)C)cc1 (stereo not given)	-2	11%	1	-10	3.3
CC(C)(C)c1ccc(C(=O)Nc2cccc3c(=O)[nH][nH]c(=O)c23)cc1	-5	11%	-4	16	i
CCNc1oc(COc2cccc(C)c2)nc1C#N	-3	0%	-5	-19	2.2
SMILES	Arbovirus inh	Mtb growth	Mtb bLac sens	YopH inh	RecA splice inh	others
N/C(CN1CCCCC1)=N\S(=O)(=O)c1cc(Cl)cc(Cl)c1	.	-2%	-10	.	0.9
CCCOc1ccc(/C=N/NC(=O)C(C)Sc2ccccn2)cc1OCC (stereo not given)	-7	4%	8	-28	-0.2
COc1ccccc1N1CCN(C(C)C(=O)N2CC(C)OC(C)C2)CC1 (stereo not given)	20	-3%	-5	.	-2.1
c1coc(CNc2nc(-c3ccncc3)cs2)c1	1	-11%	1	-21	0.8
CCc1noc(C)c1C(=O)N1CCOCC1	4	-3%	.	-2	-1.4
Cc1cc(C)c(C#N)c(SCC(=O)Nc2ccccc2C(N)=O)n1	-3	0%	2	-42	-3.5
O=C(NCc1cccs1)C1CCCN(S(=O)(=O)c2cnc[nH]2)C1 (stereo not given)	-1	-5%	-7	-35	-0.6
CCOC(=O)C1C(=O)Nc2nc(C)nn2C1c1ccccc1 (stereo not given)	7	-9%	5	-8	1.2
S=C1NC[C@H](Cc2cccc3ccccc23)N1CC1CCCCC1	.	-2%	-8	.	7.3
COc1ccc(/C=N/NC(=O)C2C3CCCCC32C)cc1OC (stereo not given)	-5	9%	96	.	-0.3
N#C/C(=C\c1ccco1)C(=O)Nc1ccc(S(N)(=O)=O)cc1	-1	-3%	0	.	-2.7
Cc1ccc(NC(=O)N2CCN(C)CC2)cc1NC(=O)N1CCN(C)CC1	.	1%	-5	.	4.0
CC(OC(=O)c1cccc(-n2cnnn2)c1)C(=O)c1ccccc1 (stereo not given)	.	.	-11	.	0.5
Nc1ccc(N=Nc2ccccc2)c2ccccc12	.	9%	-6	.	24
Cc1ccc(S(=O)(=O)N/N=C2/CC(c3ccccc3)Oc3ccccc32)cc1[N+](=O)[O-] (stereo not given)	-4	1%	18	-26	5.3
C(=N/N1CCN(c2ccccc2)CC1)/c1ccncc1	1	10%	12	.	-0.8
O=C1C(C2=NC(C(=O)O)C3C(=O)N(c4ccc(Cl)cc4)C(=O)C23)=C(O)c2ccccc21 (stereo not given)	5	-4%	-5	-35	0.9
COc1ccc(N(CC(=O)N/N=C/c2ccc(C(=O)O)cc2)S(=O)(=O)c2ccc(NC(C)=O)cc2)cc1	.	.	-4	.	1.9
COc1ccccc1C(=O)NNC(=O)c1cccc(O)c1	.	.	-4	.	1.2
COc1ccc(S(=O)(=O)N2CCN(C(=O)C3CCCO3)CC2)cc1 (stereo not given)	.	.	-22	.	-0.5
CC(C)CN(C(=O)C(C)N1C(=O)c2ccccc2C1=O)c1c(N)n(Cc2ccccc2)c(=O)[nH]c1=O (stereo not given)	.	.	-4	.	-0.2
CCN(CC)C(=O)c1cc2c(=O)c3cc(Cl)ccc3oc2nc1C	2	-7%	1	.	-6.4
CC1CN(Cc2nc3c(c(=O)[nH]c(=O)n3C)n2CCCc2ccccc2)CC(C)O1 (stereo not given)	11	-3%	-1	-10	1.1
O=C(NC1CCCCC1)N1CCN(C(=O)c2ccco2)CC1	3	2%	-5	-5	-0.6
CCOC(=O)c1ccc(NC(=O)c2n[nH]c(=O)c3ccccc23)cc1	-1	>100µM*	80	.	-3.1
SMILES	Arbovirus inh	Mtb growth	Mtb bLac sens	YopH inh	RecA splice inh	others
COc1cc(NC(=O)CSc2nc(=O)n(CCN3CCOCC3)c3c2CCCC3)cc(OC)c1	.	.	-4	.	-5.0
O=C(NNc1ccc(F)cc1)c1c(F)cccc1Cl	.	75%	95	.	1.9
COc1ccc(Br)cc1/C=N/NC(=O)Cn1nnnc1N	.	-8%	-6	.	-0.8
CCOC(=O)c1cccc(NC(=O)CSc2nnc(COc3ccccc3)n2CC)c1	0	-2%	?	-12	-1.1
COc1ccc(N2CCN(c3nc(=S)n(-c4ccccc4)c(C)c3C(C)=O)CC2)cc1	1	-4%	2	-36	-1.1
O=C(Nc1ccc2ccccc2c1)c1cccc(F)c1	.	-6%	9	.	2.6
CSc1oc(-c2cccs2)nc1S(=O)(=O)c1ccccc1	.	51%	2	.	1.2
Cc1ccc(C)c(Nc2ncccc2C(=O)NCc2cccs2)c1	-15	18%	57	-16	2.6
CCc1ccc(CNC(=O)c2ccc(OC3CCN(C(C)=O)CC3)c(OC)c2)nc1	.	.	6	.	-0.8
CCn1c(NC(=O)c2cccs2)c(-c2cccs2)c(=O)c2ccccc21	0	5%	3	-14	0.5
CCOC(=O)N1CCC(N(CCOC)C(=O)Nc2ccc(Cl)c(Cl)c2)CC1	1	1%	1	-25	4.2
CCOC(=O)C1CCN(C(=O)CCc2nnc3ccc(N4CCC(C)CC4)nn23)CC1	.	.	4	.	-3.3
Cc1cc2nnc(SC(C)C#N)n2c2ccccc12 (stereo not given)	2	0%	-13	-17	0.5
COc1ccc2nc(N3CCCC3)[nH]c2c1	7	5%	-12	-51	-2.8
O=C1NC(=O)C2(Cc3ccccc3N3CCCC32)C(=O)N1c1cccc(Cl)c1 (stereo not given)	-1	-5%	-5	-21	-1.9
Cc1ccc(S(=O)(=O)NCC(=O)N(CC(=O)NC(C)(C)C)Cc2cccs2)cc1	2	-4%	-9	0	-2.7
COc1ccc(N/C=C/C(=O)c2cc(OC)c(OC)c(OC)c2)cc1	.	.	93	.	-0.6
CCN(CC)C(=O)C1CCCN(C(=O)Nc2ccccc2)C1 (stereo not given)	2	4%	-9	-3	5.0
Cc1ccc(N(C)C(=O)Oc2ccc(C(=O)c3ccc(Cl)cc3)cc2)cc1	-3	8%	1	-31	-0.6
S=C(c1c[nH]c2ccc(Br)cc12)N1CCOCC1	26	1%	-9	.	0.1

This is a subset; the hit share may differ from the screen's.
